Source: PubChem (National Center for Advancing Translational Sciences (NCATS))
CtBP-E1A inh: CtBP/E1A binding inhibition; AlphaScreen GST-E1A/His-CtBP binding, 1536-well; hits give low values; control for the full effect not named in the record; activity change, % (test concentration not listed); actives 0.49% (n = 340,000); AID 651724; in the data active means activity change below about -65%; inconclusive means about -30% to -65%; inactive means above about -30%; further: on the % scale 0 is the no-effect control and ±100 the full control effect; compound concentration not given in the record
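In 5 uL wells, 23 nL compound meets equimolar GST-E1A and His-CtBP (5X stock 125 nM each) for 2 h, 37 °C. Beads (5X, 50 ug/mL) then 1 h, 37 °C, dark.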
gsp antag: gsp mutant antagonism; gsp-mutant cells, cAMP HTRF, 30 min; control for the full effect not named in the record; actives 0.4% (n = 340,000); AID 624288; Potency, µM (top dose mostly 76.9 µM), inactives show top-dose activity change, negative = inhibition, hits mostly inhibitors; active = falling curve of any shape with a large fitted effect; inconclusive = falling curve, mostly with a smaller effect; inactive = flat or rising curve; cell line not stated here;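 further: intracellular cAMP measured with PDE inhibitor Ro 20-1724 present during compound exposure; potency means the concentration at half of the fitted maximal effect; on the % scale 0 is the no-effect control and ±100 the full control effect; nearly all actives have a fitted effect of over 65% in size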
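HTRF cAMP read-out (cAMP-d2 plus anti-cAMP antibody-K in lysis buffer, 30 min RT). Before lysis, cells are exposed to compounds with […] for 30 min at 37C in DPBS containing Ca/Mg, BSA and Tween 20.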
D2 potentiator: potentiates the human D2 dopamine receptor allosterically; P14416; actives 0.23% (n = 360,000); DiscoveRx D2 beta-arrestin cells, luminescence, 90 min; 100% = 57 uM dopamine signal; potentiation, % (no concentration beside the values); active = potentiation of 50% or more; inconclusive = 30% to 50%; inactive = 30% or less;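 further: compound concentration not given in the record; tested on top of an EC20 dose of dopamine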
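D2 cells co-treated with compound plus 50 nM dopamine (EC20) for 90 min at 37 deg C to detect potentiation. Beta-arrestin recruitment was read as enzyme-fragment luminescence after 1 h at ambient temperature. Full response was set by 57 uM dopamine.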
Six1-Eya2 inh: blocks human Six1 binding to Eya2; Q15475+O00167; actives 0.56% (n = 360,000); activity change, % (concentration not given with the values); AlphaScreen GST-Six1/His-Eya2 binding, biochemical; hits give low values; control for the full effect not named in the record; AID 651725; in the data active = activity change below about -65%; inconclusive = about -30% to -65%; inactive = above about -30%; further: on the % scale 0 is the no-effect control and ±100 the full control effect
Target sequence (O00167 whole entry, looked up): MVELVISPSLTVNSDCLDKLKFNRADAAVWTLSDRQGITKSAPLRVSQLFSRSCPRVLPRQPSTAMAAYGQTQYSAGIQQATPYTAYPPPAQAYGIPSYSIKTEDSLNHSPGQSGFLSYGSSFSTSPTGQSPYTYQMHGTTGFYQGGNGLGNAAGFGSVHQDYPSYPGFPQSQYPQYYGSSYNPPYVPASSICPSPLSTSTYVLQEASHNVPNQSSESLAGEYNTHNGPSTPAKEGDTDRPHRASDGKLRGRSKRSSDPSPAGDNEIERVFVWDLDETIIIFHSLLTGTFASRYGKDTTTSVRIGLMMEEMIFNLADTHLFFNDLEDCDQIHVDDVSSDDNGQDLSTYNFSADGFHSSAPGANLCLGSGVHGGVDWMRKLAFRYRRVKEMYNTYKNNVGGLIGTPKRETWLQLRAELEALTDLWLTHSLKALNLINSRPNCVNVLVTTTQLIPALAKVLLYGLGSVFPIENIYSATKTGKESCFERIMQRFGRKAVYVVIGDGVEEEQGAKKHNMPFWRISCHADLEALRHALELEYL
Target sequence (Q15475 whole entry, looked up): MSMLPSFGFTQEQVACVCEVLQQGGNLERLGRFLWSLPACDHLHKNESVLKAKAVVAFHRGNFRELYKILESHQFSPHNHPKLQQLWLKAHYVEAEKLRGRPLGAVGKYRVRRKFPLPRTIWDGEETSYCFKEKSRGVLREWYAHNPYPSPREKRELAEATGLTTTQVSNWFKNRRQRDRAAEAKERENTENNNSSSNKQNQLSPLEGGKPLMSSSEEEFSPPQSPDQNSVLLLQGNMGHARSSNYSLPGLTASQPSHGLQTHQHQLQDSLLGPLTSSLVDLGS
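Compounds are tested against tagged Six1 and Eya2 proteins bridged by glutathione donor and nickel acceptor beads; after a one-hour incubation at 37 °C without light, AlphaScreen emission is recorded.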
D2 ag: agonists of human D2 dopamine receptor (beta-arrestin). DiscoveRx PathHunter D2 beta-arrestin, luminescence, 90 min; 100% = 57 uM dopamine signal. activation, % (no concentration beside the values). actives 0.084% (n = 360,000). AID 624465; in the data active = activation above about 40%; inconclusive = about 15% to 40%; inactive = below about 15%; further: compound concentration not given in the record; the text of the record calls up to 30% inactive
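DiscoveRx PathHunter D2 beta-arrestin cells (2,100/well) attached overnight, then compound-stimulated 90 min at 37 C in HBSS/10 mM HEPES/0.1% Tween-20 buffer; beta-galactosidase complementation read by luminescence after 1 h at ambient temperature. Dopamine 57 uM final (EC100) as control.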
gsp ag: activates gsp, the McCune-Albright syndrome mutation. gsp mutant cells, cAMP HTRF, 30 min; control for the full effect not named in the record. Potency, µM (series often up to 76.9 µM), inactives show top-dose activation (cAMP increase), hits mostly activators. actives 0.13% (n = 340,000). AID 624287; active = well fitted activation curve with a large enough effect; inconclusive = small, poorly fitted or top-dose-only effect, or another doubt; inactive = no such curve, though single readings can be large or run the other way; cell line not stated here;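 further: phosphodiesterase inhibitor Ro 20-1724 added with compounds to block cAMP breakdown; potency means the concentration at half of the fitted maximal effect; nearly all actives have a fitted effect of over 60% in size; about a fifth of the inactives were tested at one dose only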
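Cells stably selected in G418 were plated at 2000/well, grown 16-24 hr, then given compounds in DMSO with the PDE inhibitor […] (300 uM solution added) for 30 min at 37C; cAMP was read by HTRF.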
* marks the source's active call; other numbers are inactive results; ? = inconclusive; · = no result given; & = joins results of further samples; [ ] = another dose, or the depositor's remark.

SMILES	CtBP-E1A inh	gsp antag	D2 potentiator	Six1-Eya2 inh	D2 ag	gsp ag
COc1ccc(CN2CN(S(=O)(=O)c3ccccc3)c3nc4ccccc4nc32)cc1	-1	-12%	-1	-9	0.9	-11%[15.4 µM]
COc1ccc(NC(=O)c2cc(-c3ccccn3)nc3ccccc23)cc1S(=O)(=O)N(C)C	-5	-12%	-23	-7	1.0	-14%
COc1ccc(CCNC(=S)NCc2cccs2)cc1OC	-6	-1%	-2	-4	0.2	-4%
Oc1c(Cl)cc(Cl)c(Cl)c1Cc1c(O)c(Cl)cc(Cl)c1Cl	5	-32%	1	1	7.9&13	·
Cc1ccc([N+](=O)[O-])cc1S(=O)(=O)N1CCCCC1C(=O)O (stereo not drawn)	0	·	-3	-2	1.5	-4%[15.4 µM]
Cn1c(=O)c2c(nc(NCc3ccc4c(c3)OCO4)n2Cc2ccccc2Cl)n(C)c1=O	-4	-6%	3	2	1.1	-28%
CCOC(=O)C1=CCN(S(=O)(=O)c2ccccc2Cl)C1c1ccc(C)cc1 (stereo not drawn)	14	·	1	5	-2.7	·
COc1ccccc1NC(=S)c1ccccc1	-3	-29%	-2	-4	-0.2	4%
CCOc1ccc(S(=O)(=O)N2CCN(C(=S)NCC3CCCO3)CC2)cc1 (stereo not drawn)	2	-6%	-1	0	-0.4	11%[15.4 µM]
Cc1ccc(C(=O)OCC(=O)NNC(=O)COc2ccc(Cl)cc2)c(O)c1	-2	15%	-7	-7	-0.3	-13%[15.4 µM]
CCN(c1ccccc1)S(=O)(=O)c1ccc(OCC(F)(F)F)c(NC(=O)c2ccc(=O)[nH]c2)c1	5	?	-2	-3	-0.7	-20%
COCc1cccc(C2=CC(=O)C[C@H](c3ccc(OC)cc3)C2)c1	4	-15%	-11	4	0.1	1%
CC(=O)N(C)c1ccc(NC(=O)C(Sc2ccccc2)c2ccccc2)cc1 (stereo not drawn)	0	-17%	-3	3	2.1	-12%
CCOC(=O)c1ccc(NC(=O)CC2SCCNC2=O)cc1 (stereo not drawn)	-4	6%	-10	4	0.8	-1%
COC(=O)/C=C1\SC(=NC(=O)c2cccc(Cl)c2)NC1=O	-22	1%	-9	-15	-5.9	-15%[15.4 µM]
O=C(NC1CCS(=O)(=O)C1)c1cccc(S(=O)(=O)N2CCOCC2)c1 (stereo not drawn)	7	9%	-3	3	-1.3	-34%[inhibitor]
CC12CCC(=O)N1C(C(=O)NNC(=O)c1ccc(Cl)cc1)CS2 (stereo not drawn)	-3	-13%	-2	5	-2.5	-7%
Cc1ccc(NC(=S)N(CCN(C)C)C(C)c2cccnc2)cc1 (stereo not drawn)	-1	-2%	-12	0	-1.8	9%[15.4 µM]
Cc1nc(-c2ccccn2)nc(SCC(=O)c2ccc(F)cc2)c1Cl	-10	-21%	-6	0	-3.6	4%
CN(Cc1ccccc1)C(=O)COC(=O)Cn1cnc2ccccc21	-8	-8%	-9	11	-2.8	19%[15.4 µM]
CCCCCCCCCC(=O)N[C@@H]1c2cc(OC)c(OC)cc2C[C@H]1O	1	-6%	·	2	-0.2	·
CC[C@@](C)(NS(=O)(=O)OCC(Cl)(Cl)Cl)c1ccccc1	3	0%	-11	3	2.0	·
O=C(Nc1ccc2c(c1)OCCO2)C1CCCC1	·	-8%	-2	5	0.8	3%
Cc1nc(NCCc2ccc(S(N)(=O)=O)cc2)c2c3c(sc2n1)CCC3	-9	-17%	1	-8	0.5	7%
COc1cc(C(=O)OCCCN2CCCN(CCCOC(=O)c3cc(OC)c(OC)c(OC)c3)CC2)cc(OC)c1OC	-23	-2%	-36	-10	-0.6	·

The last 5 compounds of the part before are carried over, then new ones follow.
SMILES	CtBP-E1A inh	gsp antag	D2 potentiator	Six1-Eya2 inh	D2 ag	gsp ag
CCCCCCCCCC(=O)N[C@@H]1c2cc(OC)c(OC)cc2C[C@H]1O	1	-6%	·	2	-0.2	·
CC[C@@](C)(NS(=O)(=O)OCC(Cl)(Cl)Cl)c1ccccc1	3	0%	-11	3	2.0	·
O=C(Nc1ccc2c(c1)OCCO2)C1CCCC1	·	-8%	-2	5	0.8	3%
Cc1nc(NCCc2ccc(S(N)(=O)=O)cc2)c2c3c(sc2n1)CCC3	-9	-17%	1	-8	0.5	7%
COc1cc(C(=O)OCCCN2CCCN(CCCOC(=O)c3cc(OC)c(OC)c(OC)c3)CC2)cc(OC)c1OC	-23	-2%	-36	-10	-0.6	·
COc1cc(OC)c(C(=O)OCC(=O)Nc2c(C)n(C)n(-c3ccccc3)c2=O)cc1OC	8	12%	-3	2	2.6	-52%[inhibitor]
Cc1ccccc1NC(=S)NCC(c1cccnc1)N(C)C (stereo not drawn)	2	7%	6	-2	-0.5	0%
CCc1ccccc1N(CC(=O)N/N=C/c1ccc(OC(=O)OC)c(OC)c1)S(C)(=O)=O	-25	-11%	0	?	0.4	-47%[inhibitor]
Cn1ccnc1C1CCCCN1C(=O)c1cc(COc2ccc(F)cc2Cl)on1 (stereo not drawn)	-8	5%	2	-13	5.2	?
O=C(O)CCCCCN=C1CCc2ccccc2N1	6	6%	-20	4	-1.1	-32%[inhibitor]
O=[N+]([O-])/C(=C\Nc1ccccc1)S(=O)(=O)c1ccccc1	5	1%	-14	-2	-2.0	-5%
O=C(Cc1ccccc1)c1c[nH]c(C(=O)O)c1	-10	9%	-2	8	-5.4	3%[15.4 µM]
O=C(O)CCc1nn2c3ccccc3n(Cc3ccccc3F)c2nc1=O	0	·	4	0	-1.1	-2%[15.4 µM]
CNc1cncc(-c2ccc(F)c(F)c2)n1	-8	·	-12	7	6.3	·
O=C(CCCn1c(=S)[nH]c2cc3c(cc2c1=O)OCO3)N1CCN(c2ccccn2)CC1	4	-10%	-4	-1	3.0	-11%
COc1ccc(-c2noc(CSc3nc4ccccc4c(=O)n3-c3ccccc3)n2)cc1	2	-14%	2	2	1.4	6%
O=C1CCC(C(=O)NCc2ccc3c(c2)OCO3)N1 (stereo not drawn)	-9	13%	-6	1	-3.8	-15%[15.4 µM]
CN(CC(=O)Nc1ccc(OC(F)(F)F)cc1)S(=O)(=O)c1cnc[nH]1	1	10%	0	-1	-0.2	2%
Cc1ccc(C(CC(=O)c2ccco2)SCCO)cc1 (stereo not drawn)	4	-6%	5	2	-4.2	-30%
CC1CN(CCCSc2ccc(Cl)cc2)CC(C)O1 (stereo not drawn)	4	8%	-23	-1	-2.3	-3%[15.4 µM]
COCCCN1C(=O)c2ccc(C(=O)OCC(=O)NCc3ccccc3OC)cc2C1=O	-5	-24%	-8	-14	-1.8	5%[15.4 µM]
CCOc1ccc(NC(=O)c2cc3c(C)nc4ccccc4c3o2)cc1	-10	-7%	-4	0	0.0	-16%
CCOC(=O)Nc1ccc(Cc2ccncc2)cc1	-4	9%	-2	0	-0.4	-3%[15.4 µM]
NC(=O)c1cnn(C2CCS(=O)(=O)C2)c1 (stereo not drawn)	·	9%	-1	5	-0.4	-64%[inhibitor]
COc1ccccc1N1CC(C(=O)OCC(=O)Nc2cc(C)on2)CC1=O (stereo not drawn)	3	3%	-7	4	-2.0	6%[15.4 µM]
Cc1ccc(NC(=O)CN(C)C(=O)C2CC(=O)N(Cc3ccccc3)C2)cc1 (stereo not drawn)	-19	12%	-13	5	-3.1	13%
Cc1cc(C(=O)c2cnc(/N=C/N(C)C)s2)cc(C)c1O	-3	-4%	-36	-1	-7.5	-29%
COc1nc(SCC(=O)Nc2ccccc2Cl)nc(N(C)C)n1	-1	-10%	1	-3	-2.1	8%
COc1ccc(C(=O)NN/C(C)=C/C(=O)c2ccccc2)cc1	2	7%	-10	-4	-0.6	-72%[inhibitor]
Cc1ccc(S(=O)(=O)NC2CC(=O)N(c3ccc4c(c3)OCCO4)C2)cc1 (stereo not drawn)	5	0%	9	-1	-3.0	-5%[15.4 µM]

Continued:
SMILES	CtBP-E1A inh	gsp antag	D2 potentiator	Six1-Eya2 inh	D2 ag	gsp ag
CC(C)c1nnc(NC(=O)CSc2nnc(NC(=O)c3c(F)cccc3F)s2)s1	·	-18%	-2	-1	-2.9	-28%
CN(C(=O)CSc1nc2ccccc2c(=O)n1-c1ccccc1F)C1CCS(=O)(=O)C1 (stereo not drawn)	1	1%	-1	8	-5.6	22%
Cn1c(NNC(=O)C2CCCCC2)cc(=O)n(C)c1=O	2	3%	-4	10	-2.6	0%[15.4 µM]
Cn1c(N)c(C(=O)N/N=C/c2ccccc2)sc1=S	-14	4%	-1	-11	-0.4	-5%[15.4 µM]
CCC(C)(C)n1nnnc1C(c1ccc(C)cc1)N1CCCC1 (stereo not drawn)	7	-1%	-3	-5	-2.0	-31%[inhibitor]
O=C(O)Cc1ccc2[nH]c3ccc(CC(=O)O)cc3c2c1	-2	3%	-7	3	5.2	-22%
O=C(c1cc(C2CCCCN2C(=O)OCCF)on1)N1CCOCC1 (stereo not drawn)	0	·	-2	1	-5.9	·
Cn1nc(C(F)(F)F)c(C(=O)Nc2cccc(C(F)(F)F)c2)c1SCc1ccc(Cl)cc1	21	-25%	8	19	2.5	-6%
COc1ccccc1NS(=O)(=O)c1ccc(C)c(C(=O)NCCCN2CCCC2=O)c1	-14	-4%	7	-3	2.9	10%[15.4 µM]
C=CCOCC(O)CS(=O)(=O)Cc1ccc(Cl)cc1 (stereo not drawn)	-1	5%	3	7	-1.0	6%
O=C1CC(SC2=NCCS2)C(=O)N1c1cccc(Cl)c1Cl (stereo not drawn)	0	4%	-1	-2	-5.6	4%
COc1ccc(N2CCN(C(=O)NC3CCCCC3)CC2)cc1	-2	5%	-19	5	-0.5	-21%
CCOC(=O)c1c(NC(=O)Cn2nc(C(=O)O)c3ccccc3c2=O)sc(CC)c1C	-2	-20%	-3	-4	1.8	?
CCOc1ccc(CC(C(=O)NN)C(=O)NN)cc1CN(C)C	-9	8%	3	-2	-1.7	6%
COc1ccc(C2C(C(=O)N3CCOCC3)=C(C)NC3=C2C(=O)CC(C)(C)C3)c(OC)c1 (stereo not drawn)	6	4%	-10	7	-0.2	4%
Nc1ccc(-c2nc(-c3ccccc3)nc3ccccc23)cc1	34	-10%	0	39	2.5	?
O=C(COC(=O)c1nn(-c2ccccc2)c(=O)c2ccccc12)NC1CCS(=O)(=O)C1 (stereo not drawn)	-2	-7%	8	0	-1.9	0%[15.4 µM]
CCCN(CCC)CCCNC(=O)c1cc2c(=O)n(C)c3ccccc3c2n1C	1	6%	-11	-9	0.9	-48%[inhibitor]
O=C(CNC(=O)c1ccc(Cl)cc1Cl)OCN1C(=O)c2ccccc2C1=O	-8	-3%	0	3	0.1	-16%[15.4 µM]
CCOC(=O)N1CCC(N2CC34C=CC(O3)C(C(=O)Nc3ccc(OCC)cc3)C4C2=O)CC1 (stereo not drawn)	-3	10%	-5	2	1.8	1%
